TRPML1 inh: human mucolipin-1 channel inhibition. AID 624415. Q9GZU1. activity change, negative = inhibition, % (no concentration beside the values). 390,000 tested, 0.02% active. TRPML1-inducible cells, Ca2+ dye fluorescence, FDSS; active compounds read low; inhibition of EC80 agonist-evoked calcium signal; in the data active means activity change below about -50%; inconclusive means about -30% to -50%; inactive means above about -30%;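 note: stimulus is agonist 54-4 at its EC80 concentration; % is set by controls: 0 for no effect and ±100 for the full control effect; compound concentration not given in the record; the text of the record puts the active cut at -80%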
Target sequence (Q9GZU1 whole entry, looked up): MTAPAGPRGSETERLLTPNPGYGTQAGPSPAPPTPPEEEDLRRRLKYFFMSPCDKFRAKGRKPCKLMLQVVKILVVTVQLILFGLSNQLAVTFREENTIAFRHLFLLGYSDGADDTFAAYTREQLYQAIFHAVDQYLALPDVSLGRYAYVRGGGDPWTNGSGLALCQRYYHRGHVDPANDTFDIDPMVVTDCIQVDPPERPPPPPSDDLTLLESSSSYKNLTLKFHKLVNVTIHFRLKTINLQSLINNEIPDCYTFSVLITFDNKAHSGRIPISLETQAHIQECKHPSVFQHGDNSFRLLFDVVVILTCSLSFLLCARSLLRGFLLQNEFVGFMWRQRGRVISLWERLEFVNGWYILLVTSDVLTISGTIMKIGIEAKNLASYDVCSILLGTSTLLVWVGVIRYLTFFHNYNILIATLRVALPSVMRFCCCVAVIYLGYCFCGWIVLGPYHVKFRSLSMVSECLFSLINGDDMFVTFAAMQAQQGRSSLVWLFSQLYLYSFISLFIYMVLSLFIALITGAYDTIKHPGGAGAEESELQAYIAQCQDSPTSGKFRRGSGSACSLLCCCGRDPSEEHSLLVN
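Calcium fluorescence in TRPML1-DL cells induced overnight with Tet: a 110 s read after compound pin addition, then a 110 s antagonist read after challenge with 54-4 at 4 uM final (EC80).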
ClpP mod: qHTS Assay for Activators of ClpP; ATP-dependent Clp protease proteolytic subunit (Bacillus subtilis (strain 168)), P80244; 340,000 tested, 1.9% active; AID 651965, 2013; purified B. subtilis ClpP, FRET peptide cleavage, 20 min; Potency, µM (doses to about 57.5 µM), without a hit: at the highest dose activity change, negative = active; active = well fitted falling curve with a large enough effect; inconclusive = small, poorly fitted or top-dose-only effect; inactive = no such curve, though single readings can be large or run the other way; note: potency is the fitted concentration of half-maximal effect; the source files actives as falling curves though it sought activators and does not explain the sign; nearly all actives have a fitted effect of over 65% in size; many hits overshoot -100%
Target sequence (P80244 whole entry, looked up): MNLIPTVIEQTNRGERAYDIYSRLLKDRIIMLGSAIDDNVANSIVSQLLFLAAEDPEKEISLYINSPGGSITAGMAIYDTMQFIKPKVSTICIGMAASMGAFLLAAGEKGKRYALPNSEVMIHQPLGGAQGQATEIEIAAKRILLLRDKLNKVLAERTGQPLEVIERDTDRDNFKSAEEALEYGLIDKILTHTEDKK
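ClpP 10 microg/mL final, pH 8 Tris/KCl buffer with BSA, glycerol, Tween-20; compound pinned in; FRET-FV substrate; RT 20 min; Ex320/Em430; ΔFRET vs ADEP 5.8 microM, DMSO, no enzyme.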
TRPML1 ag: agonists of human TRPML1 channel; Q9GZU1; TRPML1-expressing cells, Ca2+ dye fluorescence, FDSS; host cell line not named in the record; reference of the full effect not given here; activation, % (test concentration not listed); 410,000 tested, 0.12% active; in the data active = activation above about 50%; inconclusive = about 30% to 50%; inactive = below about 30%; note: 0% is about no effect; the text of the record puts the active cut at 80%
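Cells: TRPML1-DL, 1X Tet inducer, ~16 h at 37 degrees C/5% CO2. Dye: ABD Ca8 no-wash + quencher, 45-90 min RT. Read: 10 s baseline, compound add, 110 s agonist phase; 54-4 EC80 (4uM final), 110 s antagonist phase.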
gsp ag: activates gsp, the McCune-Albright syndrome mutation; gsp mutant cells, cAMP HTRF, 30 min; control for the full effect not named in the record; Potency, µM (series often up to 76.9 µM), for the others: at the highest dose activation (cAMP increase), actives largely listed as activators; 340,000 tested, 0.13% active; active = well fitted activation curve with a large enough effect; inconclusive = small, poorly fitted or top-dose-only effect, or another doubt; inactive = no such curve, though single readings can be large or run the other way; cell line not stated here;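 note: phosphodiesterase inhibitor Ro 20-1724 added with compounds to block cAMP breakdown; potency is the fitted concentration of half-maximal effect; nearly all actives have a fitted effect of over 60% in size; about a fifth of the inactives were tested at one dose only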
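Cells stably selected in G418 were plated at 2000/well, grown 16-24 hr, then given compounds in DMSO with the PDE inhibitor […] (300 uM solution added) for 30 min at 37C; cAMP was read by HTRF.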
Menin MLL FP FL: displaces fluorescein MLL peptide from human menin; Fluorescence polarization, fluorescein-MLL peptide displacement from menin; FP activity change, % at 61.4 µM; 290,000 tested, under 10 active; AID 1766; inconclusive = falling polarisation curve, or a change in total fluorescence; inactive = total fluorescence flat and polarisation flat or rising; no compound was filed as active; the % refers to the polarisation; negative = inhibition;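 note: % of control where 0% means no effect; inhibitors lower the polarisation; unlabelled MLL peptide was the positive control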
gsp antag: gsp mutant antagonism | AID 624288 | gsp-mutant cells, cAMP HTRF, 30 min; control for the full effect not named in the record | Potency, µM (doses to about 76.9 µM), for the others: at the highest dose activity change, negative = inhibition, most hits filed as inhibitors | 340,000 tested, 0.4% active; active = falling curve of any shape with a large fitted effect; inconclusive = falling curve, mostly with a smaller effect; inactive = flat or rising curve; cell line not stated here;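 note: intracellular cAMP measured with PDE inhibitor Ro 20-1724 present during compound exposure; potency is the fitted concentration of half-maximal effect; % is set by controls: 0 for no effect and ±100 for the full control effect; nearly all actives have a fitted effect of over 65% in size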
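G418-selected cells were plated in DMEM/10% FBS for 16-24 h at 37C, then treated with compounds plus the PDE inhibitor […] (300 uM solution added) for 30 min at 37C. Intracellular cAMP was measured by HTRF after 30 min lysis at room temperature.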
The depositor's hits bear a star; ? = inconclusive; · = no result given; & = joins results of further samples; [ ] = dose if it differs, or a comment. The list is partial; the hit share may differ from the screen's.

compound	TRPML1 inh	ClpP mod	TRPML1 ag	gsp ag	Menin MLL FP FL	gsp antag
Cc1cc(NC(=O)COC(=O)c2c(C)nn(Cc3ccccc3)c2C)no1	1.9	1.0%	0.4	-3.6%	2.4	-1.5%
Brc1ccc2[nH]cc(/C=N/N3CCCCC3)c2c1	1.7	-0.5%	0.4	0.8%	3.7	-10.1%
CCCCCCCCC(=O)NCc1ccc(O)c(OC)c1	-5.1	-1.1%	2.3	·	7.4&9.6&2.5	4.2%
Cc1nn(CC(C)C)c(Cl)c1C(=O)NC1CCCC1	18.3	0.7%	-1.1	-34.9%	·	·
COc1ccccc1N1C(=O)NC(=O)C(CCc2ccncc2)(CCc2ccncc2)C1=O	0.6	-9.0%	-0.6	-22.0%	6.6	0.0%
CCCCn1c(=O)c(C(=O)NCc2ccc(Cl)cc2)c(O)c2ccccc21	-7.1	·	0.5	-48.9%[inhibitor]	0.4	-5.0%
O=c1ccc2cc(O[C@@H]3O[C@H](CO)[C@@H](O)[C@H](O)[C@H]3O)c(O)cc2o1	-16.5	4.6%	-0.4	·	·	16.1%
Cc1ccccc1-n1c(O)c(/C=N/N2CCOCC2)c(=O)[nH]c1=S	10.1	-1.3%	1.2	?	5.3	-3.9%
CN(C)C(=O)Oc1cccc(-c2cn3cc(Cl)ccc3n2)c1	-14.0	?	-0.8	-21.1%	6.5	-13.5%
COc1ccc(S(=O)(=O)NC(CC(=O)N2CCC3(CC2)OCCO3)c2ccco2)cc1 (configuration not stated)	-3.1	2.82µM*	-0.6	0.0%	1.6	10.0%
COC(=O)C1=C(C)N(Cc2ccco2)C(=O)/C1=C\c1ccc(N(C)C)cc1	3.5	1.3%	0.0	3.2%	?	6.5%
CCc1nc(N2CCNCC2)c(C#N)c2c1CSC(C)(C)C2	-12.6	?	1.2	-28.8%	-1.4	11.6%
Nc1c(C(=O)NCc2ccco2)c2nc3ccccc3nc2n1Cc1ccc(F)cc1	21.4	28.2µM*	-0.4	6.9%	7.6	-8.8%
C=CCC1(CC)C(=O)NC(=S)NC1=O	20.9	-1.1%	-0.1	?	·	5.5%
CC(=O)C1CCC2(O)C3CCC4=CC(=O)CCC4(C)C3CCC12C (configuration not stated)	4.2	1.2%	-0.1	-29.7%	·	2.5%
COC(=O)c1cn(Cc2ccc(F)cc2)c2ccccc12	2.6	2.4%	0.8	-33.9%[inhibitor]	·	·
O=S1(=O)CCN(CCc2c[nH]c3ccccc23)CC1	10.0	·	-0.3	28.1%	-1.6	3.9%
Cc1nnc(NC(=O)c2cccn(Cc3ccccc3F)c2=O)s1	-2.1	-0.2%	1.6	·	·	·
CC(C)C(=O)NC(Oc1ccccc1Cl)C(Cl)(Cl)Cl (configuration not stated)	17.7	·	1.3	-22.4%	-2.0	-6.0%
CC12CCC(=O)C=C1CCC1C2CCC2(C)C(O)CCC12 (configuration not stated)	-7.3	-1.5%	0.4	-32.8%[inhibitor]	0.5	-5.8%
CC(C)(C)c1ccc(C(=O)Nc2ccc(Cl)cc2C(=O)c2ccccc2)cc1	-5.0	2.6%	25.8	·	·	·
O=c1c2ccccc2nc(/C=C/c2ccccc2)n1-c1ccccc1F	3.7	1.4%	0.3	·	·	·
CCCn1c(C(=O)c2ccc(OC)cc2)nc2ccccc21	16.2	0.3%	0.0	6.3%	-0.1	-6.5%
O=C(c1ccc2c(c1)N(Cc1ccc(F)cc1)CCS2)N1CCC2(CC1)OCCO2	-0.7	3.6%	-0.5	14.5%	0.2	-11.8%
O=C(O)Cn1cc(/C=C2\C(=O)NC(=O)N(c3ccc(Br)cc3)C2=O)c2ccccc21	15.1	·	-0.6	-2.8%[15.4 µM]	?	-11.6%
COc1ccc(C(=O)N2C[C@H]3C[C@@H](C2)c2cccc(=O)n2C3)cc1OC	·	-11.1%	·	·	-0.8	4.3%
Cc1cccc(N2C(=O)NC(=O)C3(Cc4cc(C)ccc4N(C)C3)C2=O)c1 (configuration not stated)	-3.0	-0.5%	-1.2	-5.5%	5.6	6.9%
COC(=O)C1=C(c2ccc(OC(F)(F)F)cc2)C[C@@H]2CC[C@H]1N2C(=O)N1CCC(O)CC1	26.7	-0.4%	-0.7	·	·	-0.6%
COC(=O)C1=C(C)NC(=S)NC1c1ccc(N(CCCl)CCCl)cc1Cl (configuration not stated)	23.1	-2.3%	3.1	-8.4%	·	?
Cc1cc([N+](=O)[O-])c(Cl)cc1NC(=O)C(C)C	8.4	0.9%	-0.5	-2.1%	2.8	-2.3%
O=P(C(c1ccc2c(c1)OCO2)N1CCOCC1)(N1CCOCC1)N1CCOCC1 (configuration not stated)	6.3	1.5%	0.0	-10.7%	2.5	5.8%
Oc1ccc2c3c1O[C@H]1c4oc5ccccc5c4C[C@@]4(O)[C@@H](C2)N(CC2CC2)CC[C@]314	20.8	0.3%	-0.6	·	-2.1	-1.6%
O=c1[nH]c(=O)n(-c2cccc3ccccc23)c(O)c1/C=N/N1CCCCCC1	1.3	-1.1%	-0.6	11.9%[15.4 µM]	-2.8	-13.3%
C#C[C@@]1(O)CCC2C3CCC4=C/C(=N/OCC(=O)NC(C(=O)O)C(C)O)CC[C@]4(C)C3CC[C@@]21C (some centres not stated)	4.2	0.4%	-1.2	-7.7%[15.4 µM]	8.8	-10.3%
COc1cccc(-n2c(CN3CCOCC3)nc3ccc([N+](=O)[O-])cc3c2=O)c1	-3.3	-0.7%	-0.6	-31.5%[inhibitor]	5.3	-11.2%
CCOC(=O)C1CCN(C(C)C(=O)c2c[nH]c3ccccc23)CC1 (configuration not stated)	2.0	-1.4%	0.5	16.1%	-0.9	15.4%
NC(=O)C1(N2CCCCC2)CCN(Cc2ccccc2)CC1	-3.3	1.4%	0.0	11.8%	0.8	5.2%
COC(=O)C1=C(c2cccc(OC)c2OC)C[C@@H]2CC[C@H]1N2C(=O)N1CCCCC1	14.3	1.7%	-0.6	·	·	?
Cc1ccc(CNC(=O)CCCn2c(=O)c3sccc3n(CC(=O)Nc3c(C)cccc3C)c2=O)cc1	-11.5	-0.4%	0.2	·	·	·
CCn1c(O)c(C=Nc2cc(Cl)ccc2Cl)c(=O)n(CC)c1=O	32.3	·	0.7	5.0%[15.4 µM]	15.3	8.8%
CCc1ccc(-n2nc(C)c3c2NC(=O)CSC3c2ccc(OC)cc2OC)cc1 (configuration not stated)	31.0	2.1%	2.5	·	·	·
c1ccc2cc(C3N4CCCN34)ccc2c1 (configuration not stated)	-9.4	·	-0.8	5.1%[15.4 µM]	-2.3	-2.8%
C[C@@H]1C(=O)O[C@@H]2CC34[C@H]5C[C@@H](C(C)(C)C)C36[C@H](OC(=O)[C@@H]6O)OC4(C(=O)O5)[C@@]12O (some centres not stated)	2.6	0.7%	-0.1	·	1.0	5.3%
Cn1cc(C(=O)Cc2ccccc2)c2ccccc21	22.1	-4.2%	1.3	0.3%	-1.5	0.6%
O=C1CNC(c2ccccc2Cl)c2cc(Br)ccc2N1 (configuration not stated)	-4.4	1.5%	2.3	-1.2%[15.4 µM]	0.3	16.0%
CCc1nc2ccc(N3CCN(C)CC3)cc2nc1CC	-21.1	·	0.6	-9.1%[15.4 µM]	-12.6	14.1%
Cc1ccccc1-c1nc(CS(=O)CC(=O)N2CCC3(CC2)OCCO3)c(C)o1 (configuration not stated)	-0.4	-7.3%	-0.8	-46.5%[inhibitor]	6.2	5.2%
NC1CC2CCCCC2CC1(O)c1ccccc1 (configuration not stated)	-12.0	1.0%	0.0	20.3%	·	·
CC(C)(O)/C=C/C(=O)[C@](C)(O)C1[C@H](O)C[C@@]2(C)C3CC=C4C(C[C@H](O)[C@@H](O)C4(C)C)[C@]3(C)C(=O)C[C@]12C (some centres not stated)	5.7	0.2%	-0.5	16.5%	·	14.1%
O=C1CC(N2CCC(n3c(=O)[nH]c4ccccc43)CC2)C(=O)N1c1ccc(F)cc1 (configuration not stated)	-15.3	1.1%	-0.4	9.7%	1.5	1.7%
C[N+]1(C)[C@@H]2CC[C@H]1CC(OC(=O)[C@@H](CO)c1ccccc1)C2 (some centres not stated)	-2.1	1.3%	-0.4	-81.3%[inhibitor]	3.4	-6.5%
CSc1ccc(CNC(C)C(O)c2ccccc2)cc1 (configuration not stated)	4.2	·	-0.8	-8.0%	-5.0	12.5%
COCCNC(=O)Cn1cc(/C=C2\C(=O)NC(=O)N(c3ccccc3F)C2=O)c2ccccc21	-9.2	-6.1%	0.8	?	?	?
COc1ccc(CC2C(=O)NC(C)C(=O)N(C)C3C(=O)N(C)C(Cc4ccc(O)c(c4)Oc4ccc(cc4)C3O)C(=O)NC(C)C(=O)NC(C)C(=O)N2C)cc1 (configuration not stated)	13.2	-2.8%	-0.3	16.3%	·	15.1%
COC(=O)C1=C(c2ccc(OCc3ccccc3)cc2)C[C@@H]2CC[C@H]1N2C(=O)NCc1ccccc1OC	24.2	-7.5%	0.0	7.6%	·	·
O=C1NC(=O)N(Cc2ccccc2)C(=O)/C1=C\N1CCCc2ccccc21	4.3	-2.0%	0.1	-17.4%	?	-1.4%
Cc1c(C)c2cc(Cl)c(OCC(=O)N3C[C@H]4C[C@@H](C3)c3cccc(=O)n3C4)cc2oc1=O	·	4.7%	·	·	3.8	-6.3%
CCOC(=O)Cc1[nH]nc2c1C(c1ccoc1)C(C#N)=C(N)O2 (configuration not stated)	1.0	-0.2%	-0.3	-37.5%[inhibitor]	6.5	-2.3%
Cn1c(CN2CCN(C(=O)COc3ccccc3)CC2)nc2cc([N+](=O)[O-])ccc21	-7.7	0.9%	3.7	?	4.2	-26.7%
